Bioassay records from PubChem BioAssay.
VDR inh: vitamin D3 receptor (human) inhibition | P11473 | VDR-SRC2-3 peptide fluorescence polarization, 2 h | Potency, µM, without a hit: max response, negative = inhibition, most hits filed as inhibitors | 0.93% of 400,000 active; active = well fitted inhibition curve with a large enough effect; inconclusive = small, poorly fitted or top-dose-only effect, or another doubt; inactive = no such curve, though single readings can be large or run the other way; also: series mostly up to about 120 µM
Target sequence (P11473 whole entry, looked up): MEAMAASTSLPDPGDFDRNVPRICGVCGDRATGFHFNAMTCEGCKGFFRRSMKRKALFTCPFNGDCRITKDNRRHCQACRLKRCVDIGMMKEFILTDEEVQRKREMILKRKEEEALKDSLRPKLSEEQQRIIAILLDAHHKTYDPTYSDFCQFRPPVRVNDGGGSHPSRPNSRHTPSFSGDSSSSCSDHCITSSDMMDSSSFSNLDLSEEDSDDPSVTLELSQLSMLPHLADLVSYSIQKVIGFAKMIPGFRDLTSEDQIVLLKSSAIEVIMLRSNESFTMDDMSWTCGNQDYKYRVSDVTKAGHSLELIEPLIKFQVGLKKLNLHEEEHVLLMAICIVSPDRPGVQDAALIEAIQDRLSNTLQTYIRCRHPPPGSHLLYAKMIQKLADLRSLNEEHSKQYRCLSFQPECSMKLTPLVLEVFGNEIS
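Compounds are added to VDR with labelled SRC2-3 coactivator peptide and held 2 h at room temperature. Inhibition of the VDR–peptide interaction is then read as a change in fluorescence polarization.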
Active calls of the source: *; ? = inconclusive; & = joins results of further samples. % is scaled to controls: 0 for no effect and ±100 for the full control effect; potency is read from the fitted curve at half-maximal effect. The list is partial; count on the stated rates, not on these rows.

SMILES	VDR inh
CC(C)c1ccc(NC(=O)[C@H](Cc2c[nH]c3ccccc23)NC(=O)[C@@H]2Cc3ccccc3CN2)cc1	-6%
O=C(O)C1=C[C@@H](c2csc3ccccc23)C[C@@H](OCc2ccc(CO)cc2)O1	-9%
CCCN1CCC(=O)N([C@H](COc2ccccc2)c2ccccc2)CC1	-18%
COc1cccc(-c2cncnc2NCc2ccc(OC)cc2OC)c1	-1%
OC(CSc1c(Cl)cccc1Cl)CN1CCN(c2ccc(F)cc2)CC1 (centres undefined)	5%
O=C(NCc1ccccc1)c1ccc(Cl)cc1[N+](=O)[O-]	-9%
O=C(NCC1COc2ccccc2O1)c1ccc(Cl)c(S(=O)(=O)N2CCOCC2)c1 (centres undefined)	-1%
CC1=C(C(=O)Nc2ccc(C)cc2C)C(c2ccc([N+](=O)[O-])cc2)n2ncnc2N1 (centres undefined)	-13%
O=C1CC(c2ccccc2)c2cc(O)ccc2O1 (centres undefined)	-8%
CCCCOc1ccc(NC(=O)CSc2nnnn2C)cc1	8%
O=C1CC(=C(c2ccccc2)c2ccccc2)C(=O)N1CCCN1CCN(c2cccc(Cl)c2)CC1	12%
CCn1c(/N=C/c2ccccc2O)nc2ccccc21	-3%
CC(=O)Nc1cccc(-c2nnc(-c3ccccc3)o2)c1	-4%
CCOCCCNC(=O)C1CCN(c2cc(C)nc3c(-c4ccc(Cl)cc4)c(C)nn23)CC1	-4%
COc1ccccc1CNC(=O)C(NS(=O)(=O)c1cccs1)C(C)C (centres undefined)	-15%
CCCC(=O)Nc1cccc(-c2cn3ccsc3n2)c1	6%
Cc1[nH]n(-c2ccccc2)c(=O)c1C=Nc1ccc(S(=O)(=O)Nc2nccs2)cc1	3%
Cn1ncc(Cl)c1C(=O)N1CCN(c2ccccc2)CC1	8%
NNc1nc(-c2ccccc2)cc(-c2ccc(Br)cc2)n1	4%
OCCc1ccc(O)c(-n2nc3ccccc3n2)c1	4%
COc1ccc(N2C(=O)CCC(C(=O)c3ccccc3)=C2C)cc1	25%
CN(C)CCNC(=O)c1ccc(-c2nn(C)c(=O)c3ccccc23)cc1	-15%&-1%
CCCN(Cc1nnc(-c2ccccc2Cl)o1)C(=O)c1oc2ccccc2c1C	-15%
CCCOc1ccc(N2C(=O)CC(NCC(=O)OCC)C2=O)cc1 (centres undefined)	-3%
Cc1cccc(OCCOC(=O)c2c(-c3ccccc3)noc2C)c1	13%
CCN(CC)CCNC(=O)c1cc(Sc2nnc(C)s2)nc2ccccc12	24%
CC(C)(C)c1ccc(CS(=O)(=O)CC2(O)CCN(C(=O)c3cccc(C(F)(F)F)c3)CC2)cc1	8%
Cc1cc(C)cc(NC(=O)Cc2c(C(=O)O)c(C)cn2C)c1	8%
Cc1nc(N2CCN(c3ccccn3)CC2)c2c(C)c(C(=O)Nc3ccc(F)c(Cl)c3)sc2n1	-12%
COc1ccccc1NC(=O)C(=O)N/N=C(\C)CC(=O)Nc1ccc(OCc2ccccc2)cc1	8%
Cc1ccc2nnnc(-c3ccccc3)c2c1	-6%
COc1ccc(CCN(C)CC(=O)Nc2c(C)cc(C)cc2C)cc1OC	-6%
CCOc1ccccc1/C=C(/NC(=O)c1ccccc1)C(=O)N1CCCCC1	-2%
CCc1ccc(C2=NN(CCC(=O)NCc3cccs3)C(=O)CC2)cc1	8%
CCOC(=O)c1cc(C#N)c(N2CCN(C(=O)c3cccc(C(F)(F)F)c3)CC2)nc1C(F)(F)F	-9%
COc1ccc(S(=O)(=O)N(C)C[C@H]2Oc3c(NC(=O)C4CC4)cccc3C(=O)N([C@H](C)CO)C[C@@H]2C)cc1	?
COc1ccc(C2=Nc3ccccc3NC(c3cccs3)=N2)cc1	-5%
O=S(=O)(/C=C/c1ccccc1)N1CCN(Cc2ccc3c(c2)OCO3)CC1	-5%
O=C(CSc1ccc2nc(-c3ccccc3)cn2n1)Nc1ccccc1C(F)(F)F	3%
Cc1cccc(N2CC(C(=O)OCC(=O)c3ccc(OC(=O)c4cccs4)cc3)CC2=O)c1C (centres undefined)	3%
CC(C)N(CCCNC(=O)CC1Oc2ccccc2NC1=O)Cc1ccccc1 (centres undefined)	-23%
COc1ccc(Cn2c(=O)c3oc4ccccc4c3n(Cc3ccc(F)cc3)c2=O)cc1	15%
CCn1cc(C(=O)NCc2ccc(Cl)cc2)c(=O)c2cc(S(=O)(=O)N3CCOCC3)ccc21	0%
COc1ccccc1NC(=O)CSc1nnc(-c2ccc(NC(C)=O)cc2)n1C	1%
COc1ccc(N2CCN(C(=O)CCS(=O)(=O)c3ccc4c(c3)NC(=O)CO4)CC2)cc1	-26%
CCOc1cc(C2CC(=O)NC3=C2C(=O)C(C(=O)OC)C(C)C3)cc(Cl)c1O (centres undefined)	9%
COc1ccccc1-c1nc(C#N)c(N2CCN(Cc3ccccc3)CC2)o1	12%
Cc1ccc(S(=O)(=O)NNC(=O)c2ccccc2-n2cccc2)cc1	-7%
Cc1ccc(CCNc2ncnc3onc(-c4ccc(F)cc4)c23)cc1	8%
CC(C)c1ccc(CNC(=O)c2ccc(N3CCCC3)c(NC(=O)NCc3ccccc3)c2)cc1	6%
Following part.
SMILES	VDR inh
C(=NN1CCCCCC1)c1ccc2ccccc2n1	-10%
CN(C)Cc1c[nH]c2nc[nH]c(=O)c12	-27%
CC1(C)Cc2ccccc2C(=NCC(=O)O)N1	5%
Cc1cc(NC(=O)CSc2nc3ccccc3n2CC(=O)N2CCCCC2)no1	4%
Cc1nc(-c2ccc(S(=O)(=O)N(C)Cc3ccccc3)cc2)co1	18%
CC(=O)Nc1ccc(OCC(O)Cn2cnc3ccccc32)cc1 (centres undefined)	0%
COc1ccc2cc1Oc1ccc(cc1)CC1c3cc(c(OC)cc3CCN1C)Oc1c(OC)c(OC)cc3c1C(C2)N(C)CC3 (centres undefined)	-4%
COc1ccc(-n2nnnc2-c2cnc(N3CCCC3)nc2C(F)(F)F)cc1	1%
O=C(CCNc1cccc(C(F)(F)F)c1)c1ccco1	6%
COc1cc(C(=O)NCCCNc2nc3c(C)cc(C)cc3cc2C#N)cc(OC)c1OC	0%
COc1c(CC(=O)c2cc3c(cc2O)OC(C)(C)C(O)C3)ccc2c1C=CC(C)(C)O2 (centres undefined)	0%
COc1ccc(NS(=O)(=O)c2cc(NC(=O)C3CCCO3)ccc2N2CCCCC2)cc1 (centres undefined)	17%
C=CCn1c(-c2cnn(-c3ccccc3)c2N)n[nH]c1=S	-2%
C=CCn1c(O)c2ccc(C(=O)N=NC(=O)COc3ccccc3F)cc2c1O	-7%
CCc1cccc(C)c1NC(=O)Nc1csc2c1CCCC2	6%
CCCc1cc(=O)oc2cc(OCC(=O)N3CCC(C(N)=O)CC3)ccc12	-3%
CCN1C(=O)[C@H]2[C@@H](c3ccc(C)cc3)N3C(=O)N(c4ccc(OC)cc4)C(=O)[C@@]3(CC)[C@H]2C1=O	-3%
COc1ccc(-c2cc(C(=O)Nc3cc(C)nn3-c3ccccc3)no2)cc1	-4%
O=[N+]([O-])c1ccc(C[n+]2cccc(O)c2)cc1	4%
COc1ccc2c(C)c(CC(=O)NCCc3ccccc3)c(=O)oc2c1OC	11%
CCOc1cc(C(=O)Nc2nnc(C)s2)cc(OCC)c1OCC	-17%
Cc1ccc(S(=O)(=O)Nc2ccc3c(c2)C(=O)N([C@H](C)CO)C[C@H](C)[C@@H](CN(C)Cc2ccc(-c4ccccc4)cc2)O3)cc1	6%
COC(=O)c1ccc(-c2csc(NC(=O)c3c(C)noc3C)n2)cc1	15%
COc1ccc(OC(C)C(=O)N2CC(C)OC(C)C2)cc1 (centres undefined)	5%
CC(C)(C)CN1CCNC(=O)C1CC(=O)N1CCC(C(=O)N2CCOCC2)CC1 (centres undefined)	-4%
Cc1cc(Cl)n2c(nc3cc(F)c(F)cc32)c1C#N	16µM*
Cc1ccc(-c2nnc(Nc3ccc(Cl)c(Cl)c3)c3ccccc23)cc1S(=O)(=O)N(C)C	1%
O=C(Nc1cc(Cl)ccc1N1CCOCC1)c1ccc(=O)[nH]c1	-7%
CCC(C)C(=O)Nc1nc2c(s1)C(=O)CC(C)(C)C2 (centres undefined)	2%
COc1ccc(-n2nc(C(=O)Nc3cc(C)ccn3)c3c4ccccc4n(C)c3c2=O)cc1Cl	-4%
O=C(NCCCN1CCCC1=O)C1CCN(S(=O)(=O)c2cccc(C(F)(F)F)c2)CC1	-2%
Cc1cc2c(cc1Cl)C(c1ccc3c(c1)OCO3)CC(=O)O2 (centres undefined)	-18%
O=C(Nc1ccc(Cl)cc1)c1ccc2nsnc2c1	4%
COc1ccc(-n2c(O)c(C=Nc3ccccc3)c3ccccc3c2=O)cc1OC	-18%
CCC(CC)C(=O)Nc1cccc(-c2nc3ccccc3o2)c1	-4%
CC(=O)N1CCC(N(C(=O)Nc2c(F)cccc2F)C(C)C)CC1	15%&-10%
Cc1cc(C)cc(C(=O)NCC(=O)OCC(=O)c2c(N)n(C)c(=O)n(C)c2=O)c1	1%
COc1ccc(NC(=O)CCS(=O)(=O)c2cccc3nonc23)c(OC)c1	20%
CC(C)Nc1nc2c(c(=O)n(C)c(=O)n2C)n1C	-5%
COCCCN1CCc2[nH]c(=S)[nH]c(=O)c2C1	?
O=C(Cn1nnc(-c2cccs2)n1)N1CCc2ccccc2C1	8%
CN(CC(=O)Nc1ccc(F)cc1)C(=O)c1ccc(N2C(=O)CCC2=O)cc1	-18%
O=C(OCc1nnc(-c2ccccc2)o1)c1cc(F)c(F)cc1Cl	2%
COc1ccc(C2=NOC(C(=O)NCc3cccs3)C2)cc1 (centres undefined)	-3%
Cc1ccc(CN(Cc2cc3cc(C)ccc3[nH]c2=O)Cc2nnnn2Cc2ccccc2)cc1	-27%
Cc1cccc(C(C)C)c1NS(=O)(=O)c1cn(C)nc1C	6%
COc1ccc(C2CC(c3ccccc3F)=NN2c2ccc(S(N)(=O)=O)cc2)cc1 (centres undefined)	-19%
O=C(NNC(=O)c1ccccc1C(=O)O)c1cc2ccccc2o1	-8%
CC(C)C(NC(=O)c1ccc(Cl)cc1Cl)C(=O)NCCc1ccccn1 (centres undefined)	8%
C=CC[C@@H](CC(=O)N(CCO)Cc1ccccc1)C(=O)N[C@@H](C)COC(=O)[C@@H](CC=C)CC(=O)OC(C)(C)C	15%
Later entries:
SMILES	VDR inh
O=C(COc1cc(Cl)c(Cl)cc1Cl)NCCc1ccccn1	-11%
CSc1cccc(N2CC(C(=O)NCCC3=CCCCC3)CC2=O)c1 (centres undefined)	-7%
Cc1cc(Cl)ccc1OC(C)c1nnc(N)s1 (centres undefined)	8%
O=C(NCCc1ccccc1)c1ccc(Nc2nc3ccccc3n3nnnc23)cc1	-11%
Cc1cc(NC(=O)CN2C(=O)c3ccccc3C2=O)no1	8%
CC(NC(=O)COC(=O)c1cc([N+](=O)[O-])ccc1N1CCOCC1)c1ccccc1 (centres undefined)	-12%
Cc1ccc(OC(C)C(=O)Nc2ccc3c(c2)n(C)c(=O)n3C)c(C)c1 (centres undefined)	-5%
O=C(NCc1ccccc1)NC12CC3CC(CC(C3)C1)C2	4%
O=C(c1cccc2ccccc12)N1CCN(Cc2ccccc2F)CC1	-15%
COc1ccc(CCN2C(=O)c3[nH]nc(-c4ccccc4O)c3C2c2ccc(O)c(OC)c2)cc1 (centres undefined)	15%
O=C(O)CC/C(=N\NC(=O)c1ccccc1Br)c1ccccc1	-3%
CCCNC(=O)c1onc(CSc2ccc(F)cc2)c1C(=O)NCC1CC1	-2%
Cc1cc(Cl)ccc1C(=O)C1CCCN(C(=O)c2snnc2C)C1 (centres undefined)	-8%
Brc1ccc(CN2CCN(c3ccccn3)CC2)s1	1%
CCOC(=O)c1noc2nc(C)n(Cc3cccc(C#N)c3)c(=O)c12	-13%
CCN1C(=O)[C@H]2[C@@H](c3ccc(C)cc3)N3C(=O)N(c4ccccc4)C(=O)[C@@]3(CC)[C@H]2C1=O	-9%
